# Screens (PubChem BioAssay)
# GALR2 agonist: GALR2 (human) receptor agonism; O43603; GALR2-expressing cells, agonist activation read-out; activation, %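 (tested at 5 µM)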; actives 0.48% (n = 140,000); AID 803;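 active means above mean plus 3 SD of all compounds, about 5% in these data, not always enough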;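 further: 0% = vehicle buffer wells and 100% = reference agonist at full effect; tested in CHO reporter cells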
# Target sequence (O43603 whole entry, looked up): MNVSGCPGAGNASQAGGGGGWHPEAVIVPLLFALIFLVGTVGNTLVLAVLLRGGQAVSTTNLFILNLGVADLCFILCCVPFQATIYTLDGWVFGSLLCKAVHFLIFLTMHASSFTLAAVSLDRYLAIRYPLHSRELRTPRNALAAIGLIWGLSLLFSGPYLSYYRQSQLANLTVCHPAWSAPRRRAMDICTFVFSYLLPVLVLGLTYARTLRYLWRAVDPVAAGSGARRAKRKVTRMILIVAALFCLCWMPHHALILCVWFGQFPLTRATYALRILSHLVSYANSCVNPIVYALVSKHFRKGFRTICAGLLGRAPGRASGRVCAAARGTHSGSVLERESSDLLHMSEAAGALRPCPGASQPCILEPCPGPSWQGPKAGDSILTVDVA
# RGS16-Gao: regulators of human RGS16-Galphao interaction; binding response (% of control), % at 10 µM; AID 1441; bead-based flow cytometry RGS16-Galphao binding, fluorescence; actives lie on both sides; actives 0.38% (n = 220,000); O15492+P09471;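 active means below 25% or above 175%, edge rows of some plates excepted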;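 further: Galphao activated by GDP with aluminum fluoride before binding; 100% = wells without compound and 0% = beads without RGS; some results beyond the cut were filed as inactive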
# Target sequence (O15492 whole entry, looked up): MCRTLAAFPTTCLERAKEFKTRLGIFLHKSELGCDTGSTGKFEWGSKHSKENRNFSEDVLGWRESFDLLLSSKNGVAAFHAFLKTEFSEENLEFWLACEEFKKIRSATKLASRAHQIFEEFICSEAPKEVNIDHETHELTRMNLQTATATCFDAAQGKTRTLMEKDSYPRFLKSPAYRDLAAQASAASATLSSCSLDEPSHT
# Target sequence (P09471 whole entry, looked up): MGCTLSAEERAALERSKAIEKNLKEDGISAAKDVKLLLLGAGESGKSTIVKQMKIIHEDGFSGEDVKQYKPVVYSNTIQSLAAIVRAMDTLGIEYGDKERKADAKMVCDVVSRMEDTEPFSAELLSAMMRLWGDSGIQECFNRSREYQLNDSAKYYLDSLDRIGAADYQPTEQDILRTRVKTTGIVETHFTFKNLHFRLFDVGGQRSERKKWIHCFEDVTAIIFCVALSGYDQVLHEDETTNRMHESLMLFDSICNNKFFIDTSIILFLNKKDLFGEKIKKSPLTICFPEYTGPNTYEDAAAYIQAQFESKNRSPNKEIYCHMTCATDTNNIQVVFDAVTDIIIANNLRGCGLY
# INS promoter inh: TRM-6 insulin promoter activity inhibition. actives 0.9% (n = 130,000). inhibition, % at 2 µM. AID 1273. TRM-6 cells (human fetal islet line), insulin promoter-eGFP reporter, imaging; reporter expression induced with tamoxifen;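 active means inhibition above the mean plus 3 SD, with well images judged a real hit on visual review, cut at about 60% in these data, passing the limit was not always enough; inconclusive means inhibition over the cutoff but images rejected on review; inactive means inhibition not above the cutoff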
# PKD1 inh: PKD1 (human) kinase inhibition | Q15139 | PKD1 kinase fluorescence polarization assay | inhibition, %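 (about 10 µM by stock and volumes)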 | actives 0.056% (n = 200,000) | AID 797;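 active means inhibition of 50% or more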;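 further: controls were vehicle for no effect and a reference inhibitor for full effect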
# HSV replic up: HSV replication enhancement; HSV replication augmentation in cells, fold increase; maximum fold increase; actives 0.005% (n = 220,000); AID 1956;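 active means peak rise of 1.5-fold or more in the series; inconclusive means self-fluorescent or not available for retest; tested in PC3 cells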;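 further: first round at 10 µM; read as green reporter fluorescence; hits show the peak of a series up to 25 µM; 1 = signal of infected wells without compound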
# INS promoter inh cell count: further read-out of INS promoter inh, marked with its call; normalized cell count, %; measured here: cell count, toxicity; reference of the scale not given here;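 cells exposed to compound for 48 h; stained nuclei by imaging scaled within each plate; lower means fewer cells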
# HSV replic up primary fold: recorded beside HSV replic up, whose call it bears; fold increase; compound at 10 µM; measured here: primary screen fold increase 10 uM; tested in PC3 cells;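 GFP signal in the first replicate; 1 = infected wells without compound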
# * hit, by the source's call; i = inactive; ? = inconclusive; . = no result given.
# Sample of the layout:
# Each structure is followed by: GALR2 agonist	RGS16-Gao	INS promoter inh	INS promoter inh cell count	PKD1 inh	HSV replic up	HSV replic up primary fold
COc1ccc(CNC(=O)C2(c3ccc(Cl)cc3)CC2)cc1
    -1.5	109	75*	99*	2	i	0.94
Cc1ccc(NC(=O)CSc2nnc(/N=C/N(C)C)s2)cc1
    .	103	.	.	1	i	0.96
O=C(Nc1ccc2c(c1)CCC2)c1ccc(Br)o1
    -1.7	106	-2	91	-5	i	0.87
COc1cc2[nH]c(=S)nc(NCCc3ccc(C)cc3)c2cc1OC
    .	98	20	162	-9	i	0.69

# The listing, previewed entries included:
# Each structure is followed by: GALR2 agonist	RGS16-Gao	INS promoter inh	INS promoter inh cell count	PKD1 inh	HSV replic up	HSV replic up primary fold
COc1ccc(CNC(=O)C2(c3ccc(Cl)cc3)CC2)cc1
    -1.5	109	75*	99*	2	i	0.94
Cc1ccc(NC(=O)CSc2nnc(/N=C/N(C)C)s2)cc1
    .	103	.	.	1	i	0.96
O=C(Nc1ccc2c(c1)CCC2)c1ccc(Br)o1
    -1.7	106	-2	91	-5	i	0.87
COc1cc2[nH]c(=S)nc(NCCc3ccc(C)cc3)c2cc1OC
    .	98	20	162	-9	i	0.69
Cc1ccc(NC(=S)NCCSc2ccc(Cl)cc2)c(C)c1
    -0.4	35	25	44	-9	i	0.98
N#CC1=C(N)OC2=C(CN(Cc3ccccc3)C/C2=C\c2cccnc2)C1c1cccnc1 (centres undefined)
    -0.9	95	.	.	1	i	1.1
CCOC(=O)c1cnc2ccc(Cl)cc2c1N1CCN(C)CC1
    -1.9	111	10	134	2	i	1.2
Cn1c(COc2ccc(Cl)cc2)nnc1SCc1ncc(-c2ccccc2)o1
    -1.5	53	.	.	-10	i	0.6
CCOc1ccc(/C=N/OCC(=O)NC(c2ccccc2)c2ccccc2)cc1
    0.7	106	-19	96	9	i	0.97
CCCCOc1ccc(C(C)(O)CCN2CCOCC2)cc1 (centres undefined)
    -0.5	102	38	122	-3	i	0.96
CCC(C)[C@H]1CN=C(N)N1CCc1cc(C(F)(F)F)cc(C(F)(F)F)c1 (some centres undefined)
    .	92	.	.	.	i	0.74
CN(C)C(=S)SCC(=O)Nc1ccc(Cl)cc1Cl
    -0.7	100	3	151	-14	i	0.93
Cc1ccc(-n2nnnc2SCC(=O)N2CC(=O)Nc3ccccc32)cc1
    -2.9	104	24	92	-5	i	0.92
Cc1cc(C)nc(N/N=C/c2ccccc2OCc2cccc(Br)c2)n1
    -0.1	122	-41	115	-7	i	1.1
O=C(CC(C(=O)O)c1c[nH]c2ccccc12)c1ccccc1 (centres undefined)
    .	105	50	141	0	i	0.96
O=C(Nc1nc(-c2ccc([N+](=O)[O-])cc2)cs1)c1c(F)cccc1F
    .	105	.	.	-2	i	0.89
COc1ccc(CNc2ncnc3cc(OC)c(OC)cc23)cc1
    -0.9	101	23	118	0	i	0.88
CCc1ccc2c(c1)cc(CN(Cc1ccco1)C(C)=O)c1nnnn12
    .	99	.	.	2	i	0.93
O=C1CC(=O)N(Cc2cccs2)C(=O)N1
    -1.7	86	42	82	-1	i	1.2
Cc1sc2nc(CN3CCCC3)nc(N3CCN(C(=O)c4ccco4)CC3)c2c1C
    .	98	.	.	-3	i	0.92
CC(=O)C1=C(O)C(=O)N(CCc2c[nH]c3ccccc23)C1c1ccccc1 (centres undefined)
    .	105	.	.	-3	i	1
CCOC(=O)Cc1[nH]nc2c1C(Cc1ccccc1)C(C#N)=C(N)O2 (centres undefined)
    .	100	.	.	.	i	0.97
CCOC(=O)c1cc[nH]c1CC(=O)NC
    .	105	.	.	.	i	1.1
COc1ccc(Cn2ccnc2)cc1Br
    -1.4	105	7	57	11	i	0.83
CC(C)C(=O)O/N=C(\N)c1ccc(Oc2ccc(Cl)cc2)c([N+](=O)[O-])c1
    .	98	.	.	.	i	1
Cc1ccc(COc2ccccc2-c2cc(C(=O)N/N=C/c3cccnc3)[nH]n2)cc1
    .	97	.	.	.	i	0.67
COc1cc(C(=O)NC2CC3CCCC(C2)N3C2CC2)cc(OC)c1OC (centres undefined)
    -0.9	100	-3	112	-8	i	0.93
CSc1nc(N)n2nc(-c3ccc(Cl)cc3)cc2n1
    .	99	.	.	.	i	0.76
Cc1cc(C)n(-c2cccc(CN3CCC(CO)(Cc4ccccc4)CC3)c2)n1
    .	96	.	.	-10	i	0.92
CCCCC(=O)OCc1nc2ccccc2s1
    .	96	.	.	-1	i	1.1
O=C(/C=C/c1ccccc1)c1ccccc1O
    -0.4	103	40	135	-4	i	1.1
O=C1Nc2ccc(Br)cc2/C1=N/N=C/C1=C(N2CCOCC2)C(=C\c2ccccc2)/CC1
    3.7	93	27	148	-1	i	0.74
CCc1ccc(CCN2C(=O)c3ccccc3C2=O)nc1
    .	107	.	.	.	i	1.1
Cc1cc(F)c(F)c(C(=O)N2CCC(C)CC2)c1Cl
    .	100	-36	143	-5	i	1
Cc1cccc2cc(/C=N/NC(=O)c3ccncc3)c(Cl)nc12
    .	89	.	.	.	i	0.95
O=C(N[C@@H](Cc1ccccc1)C(=O)O)c1ccc(C(F)(F)F)cc1
    .	104	.	.	-8	i	1.1
CC1CCc2sc(C(=O)Nc3ccc(C(N)=O)cc3)cc2C1 (centres undefined)
    .	105	.	.	.	i	1.1
CCOc1ccc(NC(=O)CSc2nc(C3CC3)nc3ccccc23)cc1
    .	94	.	.	-5	i	0.94
CN(C)S(=O)(=O)Nc1ccc2c(c1)OCO2
    .	102	.	.	.	i	1.4
CCN1CCN(C(=O)C23CCC(C)(C(=O)C2Br)C3(C)C)CC1 (centres undefined)
    .	97	.	.	.	i	0.97
O=C1/C(=C/c2ccc(O)cc2)SC(=S)N1Cc1cccnc1
    -0.2	108	-27	107	1	?	.
COC(=O)C1CSC(C(=O)OC)N1C(=O)Nc1ccccc1 (centres undefined)
    -2.0	88	6	105	-2	i	0.99
CC(Sc1ccc(Cl)cc1)C(=O)NCc1cccnc1 (centres undefined)
    -1.5	93	-26	79	5	i	0.85
CC(/C=N/NC(=O)Cc1cccs1)=C\c1ccccc1
    -0.9	114	-8	159	15	i	1.1
CC1CC(C)CN(CCOCCSc2ccccc2)C1 (centres undefined)
    0.4	108	.	.	1	i	1
COc1ccc(CCn2c(C)c(C(C)=O)c(C(C)=O)c2C)cc1OC
    .	112	-58	46	4	i	0.95
O=C(/C=C/c1cn(-c2ccccc2)nc1-c1ccc2c(c1)OCCO2)NCCCN1CCOCC1
    .	105	12	120	3	i	0.93
NC(N)=NC1=NC(=O)C(Cc2ccccc2)S1 (centres undefined)
    .	111	25	102	-1	i	0.99
C=CCSc1nc(-c2ccc3c(c2)OCO3)cc(C(F)(F)F)c1C#N
    -1.5	86	-33	124	-2	.	.
CCOc1cc(/C=N\NC(=O)c2ccc(C)nc2)cc([N+](=O)[O-])c1O
    -2.6	104	-11	112	-7	i	1.3
Cc1cccc2sc(NC(=O)CCNS(=O)(=O)c3cccs3)nc12
    -1.4	98	-33	81	-24	i	0.8
CC12C(=O)N(NC(=O)c3ccncc3)C(=O)C1C1C=CC2C1 (centres undefined)
    -0.2	98	.	.	2	i	1
O=C(Nc1ccc(Cl)cc1)C1c2cccc[n+]2CC(=O)N1Cc1ccc2c(c1)OCO2 (centres undefined)
    .	100	57	86	6	i	1
Cc1nc(NCC2CCCO2)c2nnn(Cc3c(F)cccc3Cl)c2n1 (centres undefined)
    .	102	.	.	5	i	0.97
O=C(CC12CC3CC(CC(C3)C1)C2)NCc1ccncc1
    -0.6	94	.	.	1	i	0.81
CCCCNc1nc(N)nc(-c2cc(Cl)ccc2O)n1
    -0.5	105	15	80	4	i	0.81
CNC(=O)c1ccsc1NC(=O)c1coc2ccccc2c1=O
    .	1.6*	.	.	3	.	.
O=C(CSc1nnnn1-c1ccccc1)CC(=O)Nc1ccc(Cl)cc1
    -0.6	98	14	75	-11	i	0.97
CC1CCc2nn(CC(=O)N3CCN(C(=O)c4ccco4)CC3)cc2C1 (centres undefined)
    -0.4	107	.	.	-6	i	1
O=C(c1c(O)c2ccccc2oc1=O)C1CCC1
    -0.9	97	.	.	6	i	0.79

# (continued)
# Each structure is followed by: GALR2 agonist	RGS16-Gao	INS promoter inh	INS promoter inh cell count	PKD1 inh	HSV replic up	HSV replic up primary fold
COc1ccc(NC(=O)/C=N/O)cc1
    .	101	.	.	-10	i	0.7
COc1ccccc1OCCCn1cc(C#N)c2ccccc21
    -1.3	101	-114	98	-15	i	0.96
CN1C(N)=NC(=O)/C1=C/c1ccc(OC(F)(F)F)cc1
    .	99	.	.	-3	i	0.9
Cc1nc2cccc(C(=O)Oc3ccc([N+](=O)[O-])cc3)c2o1
    .	93	0	66	1	i	1.1
CN(C(=O)COC(=O)c1cc(S(=O)(=O)N2CCOCC2)c(Cl)cc1Cl)C1CCS(=O)(=O)C1 (centres undefined)
    .	101	32	87	-12	i	0.91
O=C(O)CCCNC(=O)c1cccc(C(=O)NCCCC(=O)O)n1
    -1.2	107	0	142	7	i	0.93
O=C(CSc1nnc(CNC(=O)C23CC4CC(CC(C4)C2)C3)n1-c1ccccc1)Nc1ccc(F)cc1
    0.6	104	.	.	-5	.	.
FC(F)(F)c1cc(-c2cccs2)n[nH]1
    0.3	104	12	155	-3	i	0.89
Cn1c(=O)c2c(nc(-n3ccnc3)n2Cc2ccccc2)n(C)c1=O
    -3.7	100	27	44	-8	i	0.88
COc1cccc(C(=O)OCCN2CCCCC2)c1
    -2.0	97	13	111	-5	i	0.81
O=C(Nc1cccc(-c2nc3ccccc3s2)c1)c1cc(=O)c2ccccc2o1
    -0.3	99	.	.	-5	i	0.91
Cc1nn(C(C)(C)C)c(OC(=O)c2ccc3c(c2)OCO3)c1S(=O)(=O)c1ccccc1
    -2.4	100	-9	100	-1	i	0.73
COc1ccc2c(c1)O[C@@H](c1cccc(C(F)(F)F)c1)[C@H](O)C2=O
    -1.7	235	-73	63	-11	.	.
CCOC(=O)C1(Cc2ccccc2)CCN(Cc2ccc(C)s2)CC1
    .	106	.	.	-1	i	0.97
COc1ccc(CNC(=O)C2CCN(S(=O)(=O)c3cc(OC)ccc3OC)CC2)cc1
    -1.0	103	-103	54	-3	i	0.96
CC(OC(=O)c1ccc2ncsc2c1)C(=O)Nc1ncc(Cl)cc1Cl (centres undefined)
    0.2	106	40	161	-17	i	1
Cc1cc2cc(CNC(=O)c3ccc(S(=O)(=O)N4CCOCC4)cc3)ccc2[nH]1
    .	94	.	.	.	i	0.95
Cc1c(Cl)cccc1NC(=O)c1ccc(-n2ccnc2)nc1
    -1.9	100	30	128	-2	i	1
Cc1ccc(C(=O)NCC(=O)O)cc1S(=O)(=O)N1CCCCC1
    -1.6	120	54	123	-18	i	1.1
CCc1nnc(NC(=O)CSc2nc3c(c(=O)n2-c2ccccc2OC)SCC3)s1
    -1.2	104	.	.	-7	i	0.96
COc1ccc(C(O)P(=O)(OC2CCCCC2)c2ccc(N(C)C)cc2)cc1OC (centres undefined)
    -0.7	97	.	.	-4	i	1
Cc1ccc(C(=O)N2CCN=C2SCc2ccc([N+](=O)[O-])cc2)cc1
    0.8	108	.	.	12	i	1.1
CCC(C)n1c(C)nc2c(c1=O)c1nc3ccccc3nc1n2CCC1=CCCCC1 (centres undefined)
    -1.6	98	-29	232	3	i	0.94
CSc1nnc(C)c(=O)n1COC(=O)c1ccc([N+](=O)[O-])cc1
    .	98	33	117	-4	i	0.89
COc1cc(C(=O)Nc2ccc(NC(C)=O)cc2)ccc1OCc1ccccc1
    .	100	-45	77	-5	i	1.1
Cc1nc(CCNC(=O)c2cccs2)cs1
    -3.3	104	-125	108	7	i	0.9
C=CCOC(=O)C(C#N)c1nc2ccccc2nc1N1CCN(c2ccccc2OC)CC1 (centres undefined)
    -1.6	108	-72	115	-12	i	0.97
O=C(Nc1ccc(N2CCOCC2)c(Cl)c1)c1ncn[nH]1
    -2.4	103	.	.	-3	i	0.96
O=C(Nc1cccc2ccccc12)c1ccc(OC(=S)N2CCOCC2)cc1
    -4.3	107	.	.	-2	i	0.82
Cc1oc(-c2ccccc2Cl)nc1CN1CCCC1c1ccc(F)cc1 (centres undefined)
    .	94	.	.	-2	i	1.1
O=C(NC1CC1)c1nc2c(nnn2Cc2ccccc2Cl)c(=O)[nH]1
    0.7	98	44	79	10	i	1.1
